Compound activity as filed in PubChem.
UUG fidelity: modulators of yeast start codon fidelity, primary screen, whole organism, S. cerevisiae, single point, plate reader. actives 0.13% (n = 350,000). activity score, % at 18.7 µM. S. cerevisiae UUG-firefly luciferase reporter, luminescence/redox ratio;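 active = replicate mean at a twofold rise or more, about +100% in these data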;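 also: firefly luciferase made from a UUG start codon reports start codon fidelity; reporter light over untreated wells divided by growth signal over untreated wells; some hits fall short of that in this replicate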
Rce1 inh: yeast Rce1p protease inhibitors, primary screen, biochemical, fluorescence, cell-free homogeneous | CAAX prenyl protease 2 (Saccharomyces cerevisiae (strain ATCC 204508 / S288c)), Q03530 | yeast membranes, quenched prenylated peptide cleavage fluorescence | calls only | actives 0.27% (n = 290,000);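 active = fall in fluorescence gain of 50% or more versus controls, with final raw signal at or below 3038400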;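 also: plate controls were neutral control wells for no effect and wells lacking membranes for full effect; tested at 10 µM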
Target sequence (Q03530 whole entry, looked up): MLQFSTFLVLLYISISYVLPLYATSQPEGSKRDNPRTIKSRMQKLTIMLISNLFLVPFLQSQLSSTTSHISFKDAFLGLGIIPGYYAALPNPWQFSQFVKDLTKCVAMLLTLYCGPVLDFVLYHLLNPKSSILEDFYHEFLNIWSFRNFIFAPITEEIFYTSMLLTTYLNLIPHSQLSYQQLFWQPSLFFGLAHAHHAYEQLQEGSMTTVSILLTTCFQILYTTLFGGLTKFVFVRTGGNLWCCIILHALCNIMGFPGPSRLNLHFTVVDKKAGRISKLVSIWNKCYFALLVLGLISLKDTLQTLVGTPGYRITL
HIV Env fusion: inhibitors of HIV-1 Env-driven cell-cell fusion, primary screen, HeLa-JRFL effector, CEM21 target cells, luciferase. actives 1.1% (n = 360,000). inhibition, % at 12.3 µM;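 active = mean replicate inhibition score of at least 50 and every replicate individually at or above 50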;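 also: 0% = plate neutral controls and 100% = maraviroc near 300 nM; one replicate is shown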
eIF4H inh: human eIF4H binding inhibitors, primary screen, translation initiation inhibitor project, biochemical, uHTS, fluorescence polarization; Eukaryotic translation initiation factor 4H (Homo sapiens), Q15056; eIF4H fluorescence polarization binding assay; inhibition, % at 35 µM; actives 0.94% (n = 290,000);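 active = 50% or more with normal probe brightness, or confirmed in later tests; about a fifth of its hits are not listed in these tables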;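 also: calls also rest on retests at 20 µM and on dose response follow-up; 0% = protein and probe with vehicle and 100% = probe without protein; strong numbers were not always called active; many hits fall short of the cut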
CSC inhib: cancer stem cell viability inhibitors, primary screen, luminescence | inhibition, % at 7.5 µM | actives 1.1% (n = 300,000) | cancer stem cell-like cells viability;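 active = mean at 75% or more and at least half the replicates too; tested in HMLE shEcad cells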;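 also: 0% = median of negative and 100% = median of positive control wells; the first replicate is given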
MT1-MMP act inh: blockers of MT1-MMP proenzyme processing, primary screen, HT1080 RFP-PRO-GFP cells, GFP/RFP fluorescence. Matrix metalloproteinase-14 (Homo sapiens), P50281. GFP/RFP ratio change, % at 20 µM. GFP/RFP ratio fluorescence, overnight; percent of plate control window, DMSO zero. actives 0.061% (n = 360,000);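 active = GFP/RFP ratio change of at least 30% with cell ATP level not reduced by more than half and red fluorescence within 50% of control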; also: strong numbers were not always called active
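Assay system – RFP-PRO-GFP reporter HT1080 cells · Compound dosing – single dose of 20 µM compound, 1% DMSO final · Incubation – overnight compound exposure at 37 °C · Measure – GFP/RFP fluorescence ratio · Benchmarks – DMSO wells and RFP-L50D-GFP cells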
PABP FP inh: PABP poly(A) RNA binding inhibitors, primary screen, biochemical, fluorescence polarization, uHTS. Polyadenylate-binding protein 1 (Homo sapiens), P11940. inhibition, % at 35 µM. actives 1% (n = 290,000);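 active = 50% or more with normal probe brightness, or confirmed in later tests; about a fifth of its hits are not listed in these tables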;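 also: calls also rest on retests at 20 µM and on dose response follow-up; controls were probe without protein and protein plus probe with vehicle; some compounds called inactive have numbers as strong as hits; many hits fall short of the cut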
MT1-MMP act inh RFP: further read-out of MT1-MMP act inh, marked with its call; RFP signal change, %; measured here: RFP expression control read;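 0 = vehicle wells; hits needed this value within 50% of zero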
The depositor's hits bear a star; i = inactive; x = not tested or not shown. Some of the compounds tested; the hit share may differ from the screen's.

Key to letters – A = UUG fidelity; B = Rce1 inh; C = HIV Env fusion; D = eIF4H inh; E = CSC inhib; F = MT1-MMP act inh; G = MT1-MMP act inh RFP; H = PABP FP inh
1	O=C(OCc1nnc(-c2ccccc2)o1)c1ccc2c(c1)OCO2
  A = -4	B = x	C = x	D = -4	E = x	F = -4	G = 2	H = -2
2	COc1ccc(N(C(=O)c2ccco2)C(C(=O)NC2CCCC2)c2ccncc2)cc1 (stereo not given)
  A = -14	B = i	C = -8	D = -3	E = x	F = 0	G = 3	H = 6
3	CCCCSc1nnc(-c2cc(Br)ccc2N)c(=O)[nH]1
  A = -1	B = i	C = -117	D = -9	E = x	F = 2	G = -9	H = -18
4	COC(=O)c1c(C(=O)OC)c(-c2cccc(Cl)c2)n2c1CS(=O)(=O)C2
  A = 0	B = i	C = 18	D = 2	E = -2	F = 5	G = -4	H = 1
5	OCC1OC(n2ccc3c(SCc4ccccc4)ncnc32)C(O)C1O (stereo not given)
  A = -16	B = x	C = -27	D = x	E = x	F = -7	G = 0	H = x
6	CC1(C)Cc2cccc(Oc3ccc(S(=O)(=O)N4CCCC4)cn3)c2O1
  A = -3	B = i	C = 8	D = -2	E = 7	F = 1	G = -2	H = 25
7	CCOc1cc(/C=N/NC(=O)CN2CCCCC2)ccc1OCc1ccccc1
  A = -19	B = x	C = 12	D = -4	E = -9	F = -3	G = -4	H = -1
8	Cc1cc(C)n2[nH]c(=O)c(N=Nc3cccc(Cl)c3)c2n1
  A = -9	B = i	C = x	D = 12	E = 9	F = 10	G = 5	H = 1
9	Cc1c(C)c2ccc(O[C@@H]3O[C@H](CO)[C@H](O)[C@H](O)[C@H]3O)cc2oc1=O
  A = -5	B = i	C = -7	D = 10	E = 3	F = 0	G = 1	H = 12
10	N#C/C(=C\c1ccc(F)c(Br)c1)C(=O)NC1CC1
  A = -21	B = i	C = x	D = -10	E = -3	F = -1	G = 2	H = 8

Only Rce1 inh, UUG fidelity and CSC inhib, for 2 of the compounds above:
No. | SMILES | Rce1 inh | UUG fidelity | CSC inhib
1 | O=C(OCc1nnc(-c2ccccc2)o1)c1ccc2c(c1)OCO2 | x | -4 | x
2 | COc1ccc(N(C(=O)c2ccco2)C(C(=O)NC2CCCC2)c2ccncc2)cc1 (stereo not given) | i | -14 | x

Nine entries out of the list, arranged by formula weight, smallest number first:
Key to letters – A = UUG fidelity; B = Rce1 inh; C = HIV Env fusion; D = eIF4H inh; E = CSC inhib; F = MT1-MMP act inh; G = MT1-MMP act inh RFP; H = PABP FP inh
8	Cc1cc(C)n2[nH]c(=O)c(N=Nc3cccc(Cl)c3)c2n1
  A = -9	B = i	C = x	D = 12	E = 9	F = 10	G = 5	H = 1
10	N#C/C(=C\c1ccc(F)c(Br)c1)C(=O)NC1CC1
  A = -21	B = i	C = x	D = -10	E = -3	F = -1	G = 2	H = 8
1	O=C(OCc1nnc(-c2ccccc2)o1)c1ccc2c(c1)OCO2
  A = -4	B = x	C = x	D = -4	E = x	F = -4	G = 2	H = -2
9	Cc1c(C)c2ccc(O[C@@H]3O[C@H](CO)[C@H](O)[C@H](O)[C@H]3O)cc2oc1=O
  A = -5	B = i	C = -7	D = 10	E = 3	F = 0	G = 1	H = 12
3	CCCCSc1nnc(-c2cc(Br)ccc2N)c(=O)[nH]1
  A = -1	B = i	C = -117	D = -9	E = x	F = 2	G = -9	H = -18
5	OCC1OC(n2ccc3c(SCc4ccccc4)ncnc32)C(O)C1O (stereo not given)
  A = -16	B = x	C = -27	D = x	E = x	F = -7	G = 0	H = x
4	COC(=O)c1c(C(=O)OC)c(-c2cccc(Cl)c2)n2c1CS(=O)(=O)C2
  A = 0	B = i	C = 18	D = 2	E = -2	F = 5	G = -4	H = 1
7	CCOc1cc(/C=N/NC(=O)CN2CCCCC2)ccc1OCc1ccccc1
  A = -19	B = x	C = 12	D = -4	E = -9	F = -3	G = -4	H = -1
2	COc1ccc(N(C(=O)c2ccco2)C(C(=O)NC2CCCC2)c2ccncc2)cc1 (stereo not given)
  A = -14	B = i	C = -8	D = -3	E = x	F = 0	G = 3	H = 6

Additional records follow:
Key to letters – A = UUG fidelity; B = Rce1 inh; C = HIV Env fusion; D = eIF4H inh; E = CSC inhib; F = MT1-MMP act inh; G = MT1-MMP act inh RFP; H = PABP FP inh
11	CC1CCCC(NC(=O)CCNC(=O)c2ccc([N+](=O)[O-])cc2)C1C (stereo not given)
  A = -11	B = i	C = x	D = -17	E = -1	F = -3	G = -1	H = -9
12	CC(Oc1ccc(-c2ccccc2)c(F)c1)c1ccn(S(=O)(=O)c2ccc(F)cc2)n1 (stereo not given)
  A = -7	B = i	C = 16	D = -1	E = 40	F = -7	G = -9	H = -3
13	CC(=O)Nc1cc(C(=O)N2CCc3ccccc3C2)ccc1Sc1ccc(Cl)cc1
  A = x	B = i	C = -7	D = -11	E = 46	F = -1	G = -2	H = -1
14	CCOC(=O)c1ccc(Nc2nc(=O)c3cccnc3s2)cc1
  A = -9	B = i	C = -92	D = -5	E = 31	F = 0	G = 2	H = 2
15	CCOC(=O)C1(C)CCN1C(=O)c1cc(OC)c(OC)c(OC)c1 (stereo not given)
  A = -4	B = x	C = 16	D = x	E = x	F = -1	G = 4	H = x
16	CCCCc1nc(SCCOC)c2c(=O)n(C)c(=O)n(C)c2n1
  A = x	B = i	C = 6	D = -2	E = 7	F = 0	G = -1	H = -4
17	COc1ccc(CC(CC(=O)O)C(=O)Nc2ccccc2)cc1 (stereo not given)
  A = 2	B = i	C = -35	D = -9	E = -12	F = -4	G = 3	H = 4
18	C=CCSc1nc2ccsc2c(=O)n1-c1ccccc1
  A = x	B = i	C = 9	D = 2	E = -13	F = 13	G = -11	H = 4
19	O=S(=O)(c1ccc2oc3ccccc3c2c1)N1CCCC1
  A = -12	B = i	C = x	D = -4	E = -10	F = 0	G = -8	H = 4
20	CCNc1nc(NC(C)(C)C)nc(N(C#N)CC)n1
  A = -3	B = i	C = 9	D = -2	E = -1	F = 2	G = -5	H = 7
21	CCn1cc(C(=O)O)c(=O)c2cc(F)c(N3CCN(C(=S)NC(=O)c4ccccc4Br)CC3)cc21
  A = -17	B = i	C = 5	D = 22	E = x	F = 0	G = 0	H = 33
22	COc1ccc(C2CC(=O)C3=C(C2)Nc2ncnn2C3c2ccccc2)cc1 (stereo not given)
  A = -13	B = i	C = x	D = -4	E = -11	F = -5	G = -5	H = -8
23	Cc1ccc(S(=O)(=O)N2CCOCC2)cc1C(=O)OCC(=O)N1CCCC1=O
  A = x	B = x	C = -42	D = x	E = 2	F = 4	G = 2	H = x
